# Source: PubChem BioAssay (National Center for Advancing Translational Sciences (NCATS))
# Methyltransferases: Primary Screen for Target Class Profiling of Small Molecule Inhibitors of Methyltransferases | purified enzyme, MTase-Glo SAH luminescence; hits give low values | calls only at 40 µM | actives 3.9% (n = 25,000); active = -50% or lower on at least one of six enzymes; inconclusive = the cases between; inactive = as a rule above -30% on all six;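 further: enzymes were COMT GAMT GNMT HNMT NNMT and PNMT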
#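 Each enzyme was reacted with SAM and its substrate, with compounds tested once at 40 uM; SAH formed was read by MTase-Glo luminescence.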
# Calls only; i = inactive; u = inconclusive; + = active, no number. On the % scale 0 is the no-effect control and ±100 the full control effect. Some of the compounds tested; count on the stated rates, not on these rows.
SMILES,Methyltransferases
COCCOCc1nc(C2CCCCN2C(=O)NCc2ccc(F)cc2)no1 (configuration not stated),i
Cc1cc(C)cc(NC(=O)Cn2c(=O)oc3cc(S(=O)(=O)N4CCCCC4)ccc32)c1,i
NC(N)=NC(N)=Nc1ccccc1,i
COc1ccc(CN2CCC(N3Cc4cccn4C3=O)CC2)cc1,i
C[C@@H](NCCCc1cccc(C(F)(F)F)c1)c1cccc2ccccc12,u
CC1(C(=O)NC2CCCCCCC2)Cn2c(ccc2-c2ccccc2)C(=O)N1Cc1ccc(F)cc1 (configuration not stated),i
CC1(C(=O)NC2CCCC2)Cn2c(ccc2-c2ccco2)C(=O)N1c1ccc(Cl)cc1 (configuration not stated),i
CCCNC(=O)N(C1CCOCC1)C1CCN(C(=O)Cc2cccnc2)CC1,i
COc1cccc(N2C(=O)c3cc4sccc4n3CC2(C)C(=O)NC2CCCC(C)C2C)c1 (configuration not stated),i
CCOc1ccc(-c2ccc(Cn3c(CC(C)(C)C(=O)O)c(SC(C)(C)C)c4cc(OCc5ccc(C)cn5)ccc43)cc2)cn1,+
CC(=O)Nc1ccc(-c2nnc3n(CCc4ccccc4)c(=O)c4ccccc4n23)cc1,i
COc1ccc(OC)c(CNC(=O)CCCn2ccc3cc(S(=O)(=O)N4CCCC4)ccc32)c1,i
C=C(C)[C@@H]1CC[C@]2(C(=O)O)CC[C@]3(C(=O)O)[C@H](CCC4[C@@]5(C)CCC(=O)C(C)(C)C5CC[C@]43C)C12 (some centres not stated),i
O=C(c1ccc2c(c1)OCCO2)N1CCC(Cn2cc(CCO)nn2)CC1,i
CC(C)OCCCNC(=O)C1(C)Cn2c(cc3ccccc32)C(=O)N1Cc1ccc(Cl)cc1 (configuration not stated),i
CN(C)[C@@H]1CCc2[nH]c3ccc(NC(=O)c4ccc(F)cc4)cc3c2C1,+
CN(C)C[C@@H]1CN(C2CCOCC2)C[C@H]1NC(=O)c1nccc2ccccc12,i
CCCCCNc1nc2c(-c3cccc(C)c3)nnn2c2ccccc12,i
CCOc1ccc(CNC(=O)C(CC)n2ccc3cc(S(=O)(=O)N4CCCCC4)ccc32)cc1 (configuration not stated),i
CCc1ccccc1NC(=O)CSc1nnc2n(Cc3ccccc3)c(=O)c3ccccc3n12,i
CC(NC(=O)c1cc2n(n1)CC(C)(C(=O)NC1CCCC1)N(C)C2=O)c1ccccc1 (configuration not stated),i
COCC1CN(C)CC12CCN(S(=O)(=O)c1cccs1)CC2 (configuration not stated),i
CC(C)N1C(=O)c2cc3occc3n2CC1(C)C(=O)NC1CCCCCCC1 (configuration not stated),i
Cc1cc(C)c(-c2csc(NC(=O)c3ccccc3)n2)c(C)c1,i
Cc1ccc(C)c(CN2CC(=O)N(Cc3cccc(F)c3)c3ccccc3S2(=O)=O)c1,i

# Pulled by compound from the entries so far (three):
SMILES,Methyltransferases
CC(C)N1C(=O)c2cc3occc3n2CC1(C)C(=O)NC1CCCCCCC1 (configuration not stated),i
CCOc1ccc(CNC(=O)C(CC)n2ccc3cc(S(=O)(=O)N4CCCCC4)ccc32)cc1 (configuration not stated),i
CCCCCNc1nc2c(-c3cccc(C)c3)nnn2c2ccccc12,i

# Some of the entries above in a different format:
structure	Methyltransferases
CCOc1ccc(-c2ccc(Cn3c(CC(C)(C)C(=O)O)c(SC(C)(C)C)c4cc(OCc5ccc(C)cn5)ccc43)cc2)cn1	+
CC(NC(=O)c1cc2n(n1)CC(C)(C(=O)NC1CCCC1)N(C)C2=O)c1ccccc1 (configuration not stated)	i

# Filtered by structure: the entries above with an aryl thioether with sulfur outside any ring.
SMILES,Methyltransferases
CCOc1ccc(-c2ccc(Cn3c(CC(C)(C)C(=O)O)c(SC(C)(C)C)c4cc(OCc5ccc(C)cn5)ccc43)cc2)cn1,+
CCc1ccccc1NC(=O)CSc1nnc2n(Cc3ccccc3)c(=O)c3ccccc3n12,i

# (cont.)
SMILES,Methyltransferases
CCCn1c(=O)c2cc(Cl)ccc2n2c(=O)n(CC(=O)Nc3ccc(OC)c(OC)c3)nc12,i
CCc1nc2c(=O)n(CC(=O)N3CCN(c4cccc(C)c4C)CC3)nc(C)c2s1,i
CC(C)=CCC1(CO)CCCN(Cc2csc(C)n2)C1 (configuration not stated),i
CN(C)c1nc(NC2CCC(NC(=O)c3ccc(F)c(F)c3)CC2)nc2ccccc12 (configuration not stated),+
C[C@@H](CN1CCC(n2c(=O)[nH]c3cc(Cl)ccc32)CC1)NC(=O)c1ccc2ccccc2c1,u
CCC(C)(C)C1CCc2c(sc(NC(=O)c3ccc(Br)cc3)c2C#N)C1 (configuration not stated),i
CC(=O)OC1CC(C(C)(C)O)OC2CCC3(C)OC4=C(C(=O)C=C5C(C)C(OC(C)=O)C6(C)C(C)OC546)C(O)C3C12C (configuration not stated),i
CN1C(=O)c2cc3ccccc3n2CC1(C)C(=O)NCC(=O)NCc1cccs1 (configuration not stated),i
Cc1cccc(N2CCN(CCNC(=O)CCc3nnc4n(CC(C)C)c(=O)c5ccccc5n34)CC2)c1C,i
Cc1ccc(NC(=O)Cn2nc3n(C)c(=O)c4ccc(C(=O)NC5CCCC5)cc4n3c2=O)cc1,i
CC(=O)c1c(O)cc2cccc3c2c1CC(C)(O)O3 (configuration not stated),u
Cn1nccc1C(=O)N1CCCCCNC(=O)[C@@H]2CCC[C@@H]21,i
CCC1Oc2ccc(NC(=O)Cc3ccc(OC)cc3)cc2CN(Cc2ccc3c(c2)OCO3)C1=O (configuration not stated),i
CCOc1ccc(CNC(=O)CCn2ccc3cc(S(=O)(=O)N4CCCCC4)ccc32)cc1,i
CC1=CC2/C=C(\C)CCC(O)C/C=C/C(=O)OC23C(=O)NC(CC(C)C)C3C1C (configuration not stated),i
CN(C)[C@@H]1C[C@@H](CO)N(C(=O)c2csc3nc(-c4ccccc4Cl)cn23)C1,i
COc1ccc(CN2C(=O)c3ccc(-c4ccccc4)n3CC2(C)C(=O)NC2CCC(C)CC2)cc1 (configuration not stated),i
O=C(NCc1cccnc1)c1ccc2c(=O)nc3c(-c4ccc(F)cc4)n[nH]n3c2c1,i
COCCCNC(=O)CCc1nnc2n(Cc3ccc(C)cc3)c(=O)c3ccccc3n12,i
CCOCCCNC(=O)N1CCn2c(C)ccc2C1C(C)C (configuration not stated),i
COc1ccc(N(C(=O)c2ccccc2C)S(=O)(=O)c2ccc3c(c2)n(C)c(=O)n3C)cc1,i
Cc1cccc(NC(=O)CN(C)S(=O)(=O)c2ccc3[nH]c4c(c3c2)CCCC4)c1,i
CCCN1C(=O)c2cc(-c3ccccc3)nn2CC1(C)C(=O)NCc1ccccc1OC (configuration not stated),i
CCCn1c(=O)c2ccc(Cl)cc2n2c(=O)n(Cc3ccc(F)cc3)nc12,i
CCOC(=O)c1cc2n(n1)CC(C)(C(=O)NC1CCCC1)N(c1cccc(F)c1)C2=O (configuration not stated),i

# Next results follow:
SMILES,Methyltransferases
COc1ccc(-c2cc3n(n2)CC(C)(C(=O)NCc2ccccc2OC)N(Cc2cccc(C)c2)C3=O)cc1 (configuration not stated),i
O=C(NCc1cc2n(n1)CCCNC2)c1ccc(Cn2cnnn2)cc1,i
C=C1[C@@H]2CC[C@@]3(C)[C@H](c4ccoc4)OC(=O)C[C@]13O[C@H]1CC(=O)C(C)(C)[C@H](C(O)C(=O)OC)[C@]12C (some centres not stated),i
CN(C)Cc1nnc(C2CC(NC(=O)c3cc(-c4cccn4C)n[nH]3)C2)n1C (configuration not stated),i
C[C@@H]1O[C@@H](O[C@@H]2[C@@H](O)[C@@H](O[C@]3(CO)O[C@H](CO)[C@@H](O)[C@@H]3OC(=O)/C=C/c3ccc(O)cc3)O[C@H](CO)[C@H]2OC(=O)/C=C/c2ccc(O)cc2)[C@H](O)[C@H](O)[C@H]1O[C@@H]1O[C@@H](C)[C@H](O[C@@H]2OC[C@](O)(CO)[C@H]2O)[C@@H](O)[C@H]1O,i
CSc1cccc(N2C(=O)c3cc(-c4cccs4)nn3CC2(C)C(=O)NC2CCCCC2)c1 (configuration not stated),i
Cc1nc(C2(C)CCN(C(=O)c3ccc(Cc4c(C)noc4C)o3)CC2)no1,i
O=C(c1ccc(Cl)cc1)N1CC2(CCCN2C2COC2)Cc2ccccc21 (configuration not stated),i
CCC(C)NC(=O)c1ccc2c(=O)n(C)c3nnc(SCc4ccccc4Cl)n3c2c1 (configuration not stated),i
COc1cccc(CN2C(=O)c3cc4ccccc4n3CC2(C)C(=O)NC2CCCC2)c1OC (configuration not stated),i
CC1=C[C@@H](CNC(=O)CCCC(=O)O)[C@H](C(C)C)C[C@H]1Cc1nc2ccccc2n1C,i
C=CC(C)(O)CC[C@@H]1[C@@]2(C)CCCC(C)(C)C2CC[C@@]1(C)O (some centres not stated),u
COc1ccc(Cc2nc3nccc(-c4cc5ccccc5o4)n3n2)cc1,i
CNC(=O)c1cc2cc(-c3c(C)noc3C)nc(-c3cccc(OC)c3OC)c2o1,i
O=C(Cn1ccc2cc(S(=O)(=O)N3CCCCC3)ccc21)NCCc1ccc(Cl)cc1,i
Cc1cc(C)n(Cc2ccc(C(=O)N3CC4CC(C3)[C@H]3CCCC(=O)N3C4)o2)n1 (some centres not stated),i
CN1CCCC2(C1)CN(C)c1ccc(C(=O)NCC3CCCCC3)cc12 (configuration not stated),+
C/C=C/C=C/C(O)=C1/C(=O)[C@]2(C)C3/C(=C(O)/C=C/C=C/C)C(=O)C4(C)C1[C@]1(C)O[C@@]4(O)[C@@]3(C)O[C@@]12O,i
C[C@@H]1CC[C@]2(C)C3(C)CC[C@@]2(OC3=O)[C@@]12C[C@H](c1ccoc1)OC2=O,i
CC1OC2O[C@H]3[C@@H](OCC(O)[C@H]3O)OC(=O)C34CCC(C)(C)CC3C3=CCC5C6(C)CC(O)C(OC7OC(CO)C(O)C(O)C7O[C@@H]7OC[C@H](OC(=O)CC(C)(O)CC(=O)OC1C(OC1OCC(O)C(O)C1O)C2O)[C@@H](O)[C@H]7O)C(C)(CO)C6CCC5(C)C3(C)CC4 (some centres not stated),i
C[C@]1(CO)[C@H]2Cc3sc(NC(=O)C4CCC4)nc3[C@@H](CC(=O)N3CCCCC3)[C@]2(C)CC[C@H]1O,i
O=C(O)Cc1cccn1-c1ccc(Cl)cc1,i
CCOC(=O)c1cc2n(n1)CC(C)(C(=O)NCCCOC(C)C)N(c1ccc(F)cc1C)C2=O (configuration not stated),i
Cc1ccc(Cn2c(=O)c3ccccc3n3c(CCC(=O)NCCc4c[nH]c5ccccc45)nnc23)cc1,i
Cn1c(=O)n(CC(=O)NCc2ccc3c(c2)OCO3)c(=O)c2cnc(-c3ccc(Cl)cc3)nc21,i

# Later entries
SMILES,Methyltransferases
Cc1cnc(C(=O)N2CCCC2c2nc(CCOCC3CCCC3)no2)cn1 (configuration not stated),i
CN(C)CCOCC1(C)COc2ccc(C(=O)Nc3ccc4[nH]ccc4c3)cc2N1 (configuration not stated),+
Cc1ccc(C(=O)Cn2nc3n(CCCOC(C)C)c(=O)c4ccccc4n3c2=O)c(C)c1,i
COc1ccc(N2C(=O)c3cc4ccccc4n3CC2(C)C(=O)NC2CCCC2)c(OC)c1 (configuration not stated),i
CC(=O)OC12CC(C)C(OC(=O)c3ccccc3)C1/C=C(/C)C(OC(=O)c1ccccc1)CC(=O)C(C)(C)/C=C/C(C)C2=O (configuration not stated),i
CCCCNc1nc2c(S(=O)(=O)c3ccc(C)c(C)c3)nnn2c2ccccc12,i
CC(c1c[nH]c2ccccc12)C(O)C(=O)O (configuration not stated),i
CCOC(=O)C1CCN(S(=O)(=O)c2ccc3c(c2)n(C)c(=O)n3C)CC1,i
CCC1c2ccc(C)n2CCN1C(=O)Nc1cccc(C)c1C (configuration not stated),i
COc1cc(CNCCc2ccc(Cl)cc2)ccc1OCC(O)CN1CCOCC1 (configuration not stated),i
CC1OC(OC2C(OC3C(O[C@H]4CC[C@@]5(C)C(CC[C@]6(C)C5CC=C5C7CC(C)(C)CC(O)[C@]7(C)CC[C@]56C)C4(C)C)OC(C(=O)O)C(O)C3O)OCC(O)C2O)C(O)C(O)C1O (some centres not stated),i
C=CCNC(=O)N[C@H]1C[C@@H](C(=O)N[C@H](Cc2c[nH]c3ccccc23)C(N)=O)N(C(=O)c2cccn2C)C1,i
COc1cccc(C(=O)Cn2nc3n(Cc4ccc(F)cc4)c(=O)c4ccccc4n3c2=O)c1,i
O=c1c2ccccc2n2c(-c3ccc(Cl)cc3)nnc2n1Cc1ccccc1,i
CCCC1(CO)CCCN(Cc2nnc(-c3cccc(F)c3)o2)C1 (configuration not stated),i
Cc1ccc(C)c(N2CCN(C(=O)CCc3nnc4n(Cc5ccc(F)cc5)c(=O)c5ccccc5n34)CC2)c1,i
COc1cccc(CN2C(=O)c3cc(-c4ccccc4)nn3CC2(C)C(=O)NCc2ccccc2)c1OC (configuration not stated),i
O=C(Nc1ccc(F)cc1)N1CCn2cccc2C1Cc1ccccc1 (configuration not stated),i
Cc1cc2c(cc3n2CC(C)(C(=O)NC2CCCCCC2)N(CCN(CC(C)C)CC(C)C)C3=O)o1 (configuration not stated),i
COC(=O)N1CCCN(c2nccc(Nc3ccc(C)cc3)n2)C1,i
c1ccc(C(c2ccccc2)N2CCN(Cc3nc(-c4ccccn4)no3)CC2)cc1,i
CC(C)c1ccc(NC(=O)Cn2cnc3c2c(=O)n(C)c(=O)n3C)cc1,i
CC(=O)N1C[C@@H](NC(=O)Nc2ccc(F)cc2F)C[C@H]1C(=O)N[C@H](Cc1c[nH]c2ccccc12)C(N)=O,i
C[C@]1(CO)[C@H]2Cc3sc(-c4ccccc4)nc3[C@@H](CC(=O)N3CCOCC3)[C@]2(C)CC[C@H]1O,i
Cc1ccc(Nc2ccnc(N3CCC(C(=O)NCc4ccc(F)cc4)CC3)n2)cc1,i
CN(CC(=O)NCc1ccccc1Cl)S(=O)(=O)c1ccc2[nH]c3c(c2c1)CCCC3,i
